Rango dissoc inh = prevents RanGTP from dissociating the Rango-importin beta complex; O95149+P62826; Biochemical FRET Rango-importin beta, RanGTP-induced dissociation; Potency, µM (titrated, usually from 46.1 µM), without a hit: top-dose activity change, negative = inhibition; hit rate 0.071% among 340,000; active means falling FRET ratio curve, often poorly fitted, with flat reads before Ran was added; inconclusive means other falling curves, or compound fluorescence or quenching; inactive means flat or rising ratio curve;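 also: potency is read from the fitted curve at half-maximal effect; % of control where 0% means no effect; nearly all actives have a fitted effect of over 45% in size; -100% = wells without RanGTP and RCC1; the record marks most hits as doubtful in a second field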
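Compounds sat 5 min at room temperature with 0.1 uM Rango biosensor plus 0.25 uM importin beta, then FRET pre-read. RanGTP-RCC1 (0.6 uM Ran, 2mM GTP, 0.2 uM RCC1) added for 45 min, and the CFP/YFP post-read measured blocked complex dissociation.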
GLA inh pH 4.5 = blocks human alpha-galactosidase A at pH 4.5; 230,000 tested, under 10 active; purified enzyme, 4-MU-alpha-Gal fluorescence, pH 4.5; activity change, negative = inhibition, % at 105 µM; inconclusive = small, poorly fitted or top-dose-only inhibition, or a rising curve; inactive = flat fitted curve, though single readings scatter; no compound was filed as active;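 also: 0% = full activity with enzyme and -100% = basal without enzyme; dose as in the result columns while the protocol names 77 µM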
Target sequence (P06280 whole entry, looked up): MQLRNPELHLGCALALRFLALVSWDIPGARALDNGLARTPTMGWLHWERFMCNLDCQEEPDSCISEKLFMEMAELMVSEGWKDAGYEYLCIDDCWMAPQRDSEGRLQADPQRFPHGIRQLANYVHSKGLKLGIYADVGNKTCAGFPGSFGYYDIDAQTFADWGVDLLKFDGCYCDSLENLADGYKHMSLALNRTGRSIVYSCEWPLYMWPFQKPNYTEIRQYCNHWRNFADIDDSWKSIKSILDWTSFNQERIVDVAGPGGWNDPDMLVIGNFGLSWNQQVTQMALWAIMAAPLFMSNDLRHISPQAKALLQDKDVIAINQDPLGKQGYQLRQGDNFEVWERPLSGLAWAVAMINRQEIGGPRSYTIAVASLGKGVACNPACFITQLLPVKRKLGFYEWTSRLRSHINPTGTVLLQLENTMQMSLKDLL
Rango complex inh = prevents formation of the Rango-importin beta complex; Q14974; hit rate 0.031% among 340,000; Rango CFP/YFP FRET sensor + importin beta, 45 min; Potency, µM (series often up to 92.2 µM), inactives show top-dose inhibition of complex formation; active = rising FRET ratio curve, often small or poorly fitted; inconclusive = mostly compound fluorescence or quenching in the first reads; inactive = flat curves in all reads;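 also: potency is read from the fitted curve at half-maximal effect; 0% = DMSO wells and 100% = buffer wells lacking importin beta; nearly all actives have a fitted effect of over 15% in size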
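FRET biosensor Rango (snurportin 1 IBB between N-terminal EYFP and C-terminal Cerulean), 50 nM in PBS/1 mM DTT/0.02% Tween-20/0.1% BSA, preincubated 5 min RT with compound; 0.125 microM importin beta added, 45 min RT, CFP/YFP FRET ratio read.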
miR-21 FLuc = raises the signal of a miR-21 reporter | HeLa miR-21 FLuc reporter, luciferase, 48 h | Potency, µM (titrated, usually from 38.3 µM), for inactives: top-dose reporter change, positive = more light | 340,000 tested, under 10 active | AID 2288; active = well fitted rising curve with a large enough effect; inconclusive = small, poorly fitted or top-dose-only effect; inactive = no such curve, though single readings can be large or run the other way;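 also: % of control where 0% means no effect; miR-21 action dims this reporter so a rising signal means less miR-21 action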
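HeLa miR-21-FLuc reporter line, endogenous miR-21; 2000 cells/well in DMEM/10% FBS; compound titration up to ~40uM final, 48 h, 37 degree Celsius; luciferase detection reagent, 15 min lysis, CCD luminescence.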
An asterisk follows results filed as active; ? = inconclusive; . = no result given; [ ] = dose if it differs, or a comment. Only part of the results is shown; the hit share may differ from the screen's.

Order of values: Rango dissoc inh	GLA inh pH 4.5	Rango complex inh	miR-21 FLuc
- Cn1c(SCC(=O)c2ccccc2)nnc1-c1ccc(O)cc1
 : 0%	-7	2.3%	-36%
- CC(=O)c1c(C)n(CC(=O)NCc2ccc3c(c2)OCO3)c2ccccc12
 : 5%	3	5.4%	16%
- COc1ccc(Cl)cc1NC(=S)NCc1cccnc1
 : 15%	1	-0.5%	-3%
- On1nnc2c3ccccc3c3ccccc3c21
 : -24%	-6	0.0%	2%
- C/C(=N\Nc1c([N+](=O)[O-])c(C)nn1C)c1ccc(F)cc1F
 : -4%	0[21.1 µM]	-3.7%	7%
- COCCNC(=O)c1cc(-c2cccs2)on1
 : -9%	10	-2.9%	-81%
- Cc1cc(C=C2C(=O)c3ccccc3C2=O)c(C)n1-c1ccccc1
 : ?	-26	?	-22%
- CCOC(=O)N1CCN(C(=O)c2cc(-c3ccc(OCC)cc3)nc3ccccc23)CC1
 : -9%	-1	-2.1%	2%
- COc1ccc(C(F)(F)F)cc1N/C=C/c1nnnn1-c1ccc(C)cc1
 : 0%	0	-2.5%	-2%
- COc1cccc(-c2cc(C(F)(F)F)nc(N3CCCCC3)n2)c1
 : 7%	6	-0.1%	-3%
- COc1ccc(CCC(=O)NCCOc2ccc(Cl)cc2)cc1
 : 5%	.	0.1%	-25%
- Cn1c(Cc2cccc3ccccc23)nnc1SCC(=O)N1CCN(c2cccc(Cl)c2)CC1
 : -17%	-2	4.9%	28%
- CCOC(=O)/C=C(\C)Nc1cc(C)nn1-c1ccccc1
 : -6%	-7	-0.7%	-5%
- Cc1ccc(NC(=O)CN2c3cccc4cccc(c34)S2(=O)=O)cc1S(=O)(=O)N1CCOCC1
 : 1%	-4	-3.3%	4%
- Cc1ccc(N2C(=O)C3CC(c4ccccc4)=C4C5C=CC(C6C(=O)N(c7ccc(C)cc7)C(=O)C56)C4C3C2=O)cc1 (configuration not stated)
 : -3%	-7	3.3%	-8%
- COCc1c(C(=O)N/N=C(/C)c2cccs2)nnn1-c1nonc1N
 : 0%	.	-2.4%	0%
- CCCCN(C)c1ccc([N+](=O)[O-])cc1
 : -7%	-6	-2.0%	0%
- CSc1ccc(CNC(=O)c2c(C)noc2C)s1
 : -1%	0	4.9%	-1%
- Cc1ccc(-c2cnc(SCCNC(=O)c3ccco3)[nH]2)cc1
 : 8%	.	0.5%	.
- CCCCn1c(SCc2ncc(-c3ccccc3)o2)nc2cc(S(N)(=O)=O)ccc21
 : ?	-5	?	21%
- Cc1cccc(-n2ncc3c(N(C)Cc4ccccc4)ncnc32)c1
 : ?	0	1.7%	-58%
- CCCOc1ccc(C(CC(=O)O)NC(=O)c2ccc3c(c2)OCO3)cc1 (configuration not stated)
 : 12%	5	5.5%	-6%
- Cc1cc(C)c[n+](C(C)C(=O)c2ccc(-c3ccccc3)cc2)c1 (configuration not stated)
 : 20%	-2	1.8%	29%
- COc1ccc(C(=O)NCCS(=O)(=O)NCc2ccc(F)cc2)cc1
 : 1%	.	-0.9%	.
- Cc1ccc(S(=O)(=O)c2cc3c(=O)n4ccccc4nc3n(Cc3ccco3)c2=N)cc1
 : ?	1	?	-5%
- CC(C)(C)OC(=O)C[C@H]1C/C=C\C[C@@H](CC(=O)NCCO)C(=O)NCCOC1=O
 : -5%	.	2.9%	.
- CNC(=O)CC(=O)Nc1ccccc1C(=O)O
 : -9%	-1	-0.4%	-1%
- O=C(N/N=C/c1c(O)n(Cc2ccco2)c(=O)[nH]c1=O)c1ccccc1
 : -9%	-13	-2.0%	-22%
- Cc1ccc(C)c(OCC(O)CN2CCCCC2C)c1 (configuration not stated)
 : 19%	6	-0.7%	1%
- Cc1ccc2nc(N(CCCN(C)C)C(=O)c3ccc(S(=O)(=O)N(C)C)cc3)sc2c1
 : 1%	-1	-3.9%	-2%
- CCOc1ccc(NC(=O)CCC(=O)NNC(=O)COc2ccc(C)cc2Br)cc1
 : 3%	.	-0.4%	-20%
- CC(C)(C)OC(=O)C[C@H]1C/C=C\C[C@@H](CC(=O)NCCO)C(=O)NC[C@@H](c2ccccc2)OC1=O
 : -9%	.	-3.8%	.
- CC1CCCC(C)N1C(=O)COC(=O)c1ccc2ccccc2n1 (configuration not stated)
 : -5%	.	0.3%	.
- CCCc1nnc(NC(=O)CS(=O)(=O)c2ccc(C)cc2)s1
 : 0%	.	-0.3%	0%
- CCCC(O)(CCC)C(=O)NN(C(=O)OC)c1ccccc1
 : 0%	6	-1.6%	2%
- Cc1ccc(OCCCCN2CCc3ccccc3C2)cc1
 : 9%	.	1.8%	0%
- Cc1ccc(C)c(NC(=O)C(=O)NCC2CCCN2S(=O)(=O)c2cccs2)c1 (configuration not stated)
 : -3%	.	-3.4%	.
- CCOC(=O)n1cc(-c2cnc(CNC(=O)C(C)(c3ccccc3)c3ccccc3)o2)c2ccccc21
 : 8%	-10	1.2%	-6%
- NC(N)=NC(N)=Nc1ccc2ccccc2c1
 : 1%	3	-0.3%	3%
- O=C(C1CC1)N1N=C(c2ccccc2)CC1(O)C(F)(F)C(F)(F)F (configuration not stated)
 : -6%	.	2.9%	-3%
- CCOC(=O)C1(CCc2ccccc2)CCN(Cc2ccn[nH]2)CC1
 : 5%	9	0.8%	-8%
- COc1ccc(N(C(=O)c2ccc(S(=O)(=O)N3CCCC3)cc2)C2C=CS(=O)(=O)C2)cc1 (configuration not stated)
 : -10%	.	-2.0%	5%
- CCOC(=O)C(=CNc1ccccc1N1CCOCC1)C(=O)OCC
 : -15%	-8	0.4%	1%
- Fc1cccc(CSc2nc3ccncc3[nH]2)c1
 : 7%	1	8.3%	-49%
- O=C(c1ccc(Cl)cc1)C1CCN(CC(=O)N2CCCCC2)CC1
 : -17%	.	0.5%	1%
- CCc1ccccc1S(=O)(=O)Cc1ccc(C(=O)N2CCN(c3ccccn3)CC2)o1
 : 20%	-4	-0.3%	17%
- O=C(CN1C(=O)c2ccccc2S1(=O)=O)NCCC1=CCCCC1
 : -4%	-1	3.3%	-5%
- O=C(/C=C/c1ccccc1Cl)NNC(=O)c1cccs1
 : 1%	-3	0.0%	-17%
- O=C(Nc1cccc(-n2cnnn2)c1)c1ccco1
 : 0%	7	-2.2%	0%
- CC(=O)c1ccc(N2CCN(C(=S)NCCCN(C)C)CC2)cc1
 : 3%	1	4.9%	-10%
- COc1cccc(NC(=O)COc2cccc3c2CCNC3=O)c1
 : -3%	.	2.1%	.
- COc1ccc(CCNc2nnc(Sc3nnnn3-c3ccccc3)s2)cc1OC
 : 19%	-4	2.3%	29%
- COc1ccc(-c2cc(C(=O)Nc3ccc(F)cc3F)no2)cc1
 : 16%	.	0.1%	-5%
- O=C(N/N=C\c1ccc([N+](=O)[O-])o1)C1COc2ccccc2O1 (configuration not stated)
 : -20%	-2	-3.0%	23%
- Cc1ccc(CS(=O)(=O)Cc2ccc(C(=O)NCc3cccnc3)o2)cc1
 : 1%	-5	-3.9%	3%
- O=C(Nc1ccccc1)N1CCOCC1
 : 17%	2	-3.0%	-2%
- CC[N+]1=C(C)C(C)(C)c2cc(C)ccc21
 : ?	1[21.1 µM]	?	23%
- Cc1cc(O)ccc1-c1cnc2ccccc2n1
 : 11%	2	0.8%	-44%
- CSc1ncc(Cl)c(C(=O)Nc2nnc(SC/C=C/c3ccccc3)s2)n1
 : 6%	-4	-0.5%	0%
- CC(=O)N/N=C/c1cc2c(cc1[N+](=O)[O-])OCO2
 : -5%	-2	2.0%	1%

The listing continues:
Order of values: Rango dissoc inh	GLA inh pH 4.5	Rango complex inh	miR-21 FLuc
- C#CCOCCOCCOCCNc1nc(N2CCN(C(=O)[C@H](CCCCN)n3cc(CC(C)O)nn3)CC2)nc(N2CCN(C(=O)[C@H](CCCCN)n3cc(CC(C)O)nn3)CC2)n1 (some centres not stated)
 : -18%	.	-0.3%	.
- CC1=NNC(=O)C1Cc1ccc(F)cc1 (configuration not stated)
 : 2%	3	-0.5%	0%
- Cc1ccc(NC2CC(=O)N(c3ccc(N4CCCCC4)cc3)C2=O)cc1 (configuration not stated)
 : 3%	-8	2.2%	-1%
- CCOC(=O)CN(C)S(=O)(=O)c1ccc(-c2cc(C(=O)OC)sc2C(F)(F)F)cc1
 : 13%	-18	-1.8%	1%
- COC(=O)NNC(=O)COc1ccc(Cl)cc1
 : 7%	2	1.8%	-6%
- CCOc1ccc(C2C(C#N)=C(N)N(N(C)C)C3=C2C(=O)CCC3)cc1 (configuration not stated)
 : 0%	.	-0.1%	-1%
- CCc1ccc2c(CN3CCN(S(=O)(=O)c4ccc5c(c4)OCCO5)CC3)cc(=O)oc2c1
 : -20%	-5	-0.9%	1%
- O=c1cnc2cc([N+](=O)[O-])ccc2[nH]1
 : -13%	-8	-3.6%	0%
- Cc1ccc(N2CCN(C(=O)c3cccc([N+](=O)[O-])c3)CC2)cc1Cl
 : 17%	0	-6.1%	-4%
- COC(=O)/C(=C\Nc1ccc(Oc2ccc(F)cc2F)nc1)NC(=O)c1ccccc1
 : 0%	5	-1.0%	-2%
- C=CCN1C(=O)C2C(C(=O)NC)C3C=CC2(O3)C1C(=O)NCc1ccc(OC)cc1 (configuration not stated)
 : 2%	-7	-3.1%	7%
- CCOC1=NC(C(=O)O)c2ccccc2/C(=C(/C)Cl)N1 (configuration not stated)
 : -14%	-4	-5.3%	-2%
- Cc1ccc(C(=O)Nc2cccnc2)cc1NC(=O)c1ccco1
 : -17%	6	7.9%	-7%
- Cc1ccc(CNC(=O)COc2ccc(S(=O)(=O)NC(C)C)cc2)cc1
 : 5%	-7	-1.0%	-8%
- Cc1cccc(C)c1Nc1nnc(SCC(=O)c2ccc3c(c2)NC(=O)CO3)s1
 : -16%	3	0.4%	-2%
- O=C(CCc1nc2ccccc2c(=O)[nH]1)NCc1cccc(Cl)c1
 : 4%	-3	2.5%	19%
- CCCCN1C(=O)NC2NC(=O)NC21 (configuration not stated)
 : 14%	6	6.1%	-2%
- O=C(CC1(O)CCCCC1)OC1CCCC1
 : 8%	.	-1.3%	.
- Cc1ccc(-n2cnc3scc(-c4cccs4)c3c2=O)cc1
 : 1%	-3	-0.1%	-4%
- COc1cc(/C=C(/C#N)C(=O)NCc2ccccc2)cc(OC)c1OC
 : 6%	.	-0.4%	3%
- CN(C)c1ncc([N+](=O)[O-])cc1C(F)(F)F
 : 1%	-9	1.0%	-1%
- O=C(CNS(=O)(=O)c1ccccc1)NCc1ccccn1
 : -10%	-7	-5.6%	-2%
- O=C(N/N=C/c1ccc2c(c1)OCO2)C1CC1
 : -10%	.	-4.5%	-38%
- CCc1nc2nc(C)c(NS(=O)(=O)c3ccc(Cl)s3)c(=O)n2[nH]1
 : 1%	.	-3.6%	4%
- CC1(C)CC(O)(CNCc2ccc3c(c2)OCO3)CCO1 (configuration not stated)
 : -16%	-1	2.6%	-4%
- O=C(CC1Sc2ccccc2NC1=O)Nc1cccc(-c2nnc3n2CCCCC3)c1 (configuration not stated)
 : 1%	-4	-0.3%	-22%
- COc1ccc(C(=O)NC(=S)N(C)Cc2ccccc2)cc1Br
 : -10%	0	-1.3%	-2%
- COc1ccccc1NS(=O)(=O)c1cc(NC(=O)c2[nH]c(C)c(C(C)=O)c2C)ccc1N1CCOCC1
 : -9%	-9	-5.2%	9%
- CCCCNC(=O)c1c(CSc2ccccc2)noc1C(=O)NCc1ccccc1
 : -6%	3	-1.7%	-3%
- CNC(=O)/C(C#N)=C/c1c(N2CC(C)OC(C)C2)nc2ccccn2c1=O (configuration not stated)
 : ?	12	?	0%

2 entries drawn at random from the list so far, as already listed:
Order of values: Rango dissoc inh	GLA inh pH 4.5	Rango complex inh	miR-21 FLuc
- CCOC(=O)CN(C)S(=O)(=O)c1ccc(-c2cc(C(=O)OC)sc2C(F)(F)F)cc1
 : 13%	-18	-1.8%	1%
- COc1ccc(C(=O)NCCS(=O)(=O)NCc2ccc(F)cc2)cc1
 : 1%	.	-0.9%	.

Assay outcomes (PubChem)
